Ecoli rRNA inh = selective bacterial rRNA inhibition in E. coli | 1.6% of 350,000 active | AID 720706 | GFP signal change (wild-type ribosome), % (no concentration beside the values) | E. coli WT GFP vs humanized-ribosome RFP mutants, fluorescence, 24 h; stronger effect = lower value; DMSO median 0, no signal -100;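 active means significant combined selectivity score with lowered wild-type GFP, culture density cut under 30%, mutant RFP and density less affected; inactive means any of these conditions unmet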; further: one replicate is shown; some compounds called inactive have numbers as strong as hits
LANA-H2A inh = blocks KSHV LANA binding to histone H2A/H2B. 0.6% of 320,000 active. cell-free LANA-H2A/H2B peptide, fluorescence polarization. AID 2629. Q9QR71. inhibition, % (no concentration beside the values); in the data active means inhibition mostly above about 10%, no sharp cut-off; inactive means mostly below about 6.7%;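 further: stock transfer was 7.5 nL into about 10 µL; 0% = median of vehicle wells and 100% = median of positive control wells; one replicate is shown; the record names a cut of 25% in any replicate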
T cruzi inh = blocks replication of Trypanosoma cruzi; T. cruzi beta-gal in NIH3T3, luminescence, 90 h; inhibition, % (test concentration not listed); 1.4% of 300,000 active; AID 1885;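 active means mean inhibition across valid replicates above about 55%, limit read from the data; inconclusive means mean below that limit but half or more replicates reach it; inactive means mean below it, under half of replicates reach it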;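 further: signal also drops with host cell toxicity which is not excluded here; 0% = plate median of DMSO wells and 100% = zero luminescence signal; higher percent means less beta-gal luminescence so fewer parasites; stock transfer was 50 nL into about 50 µL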
ALR H2O2 inh = human ALR oxidase inhibition via reduced H2O2; 3.8% of 290,000 active; inhibition, % (concentration not given with the values); purified ALR, DTT oxidation, H2O2 HRP-luminol luminescence; P55789;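 active means mean and each replicate at 75% or more; inconclusive means only one of the two met; inactive means neither met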;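 further: stock transfer was 7.5 nL into about 7.5 µL; 0% = neutral wells and 100% = wells with inactivated enzyme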
Target sequence (P55789 whole entry, looked up): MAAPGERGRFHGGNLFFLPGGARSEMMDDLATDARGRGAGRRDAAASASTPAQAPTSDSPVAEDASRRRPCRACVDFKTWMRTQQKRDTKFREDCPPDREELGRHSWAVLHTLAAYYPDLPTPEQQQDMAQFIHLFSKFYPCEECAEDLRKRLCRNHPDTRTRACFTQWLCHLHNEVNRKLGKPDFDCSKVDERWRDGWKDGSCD
A1 inh = inhibitors of the anti-apoptotic protein A1, read as caspase activation | MEF A1-2A-BIM cells, Caspase-Glo 3/7 luminescence, 3 h; percent of clofoctol response, vehicle zero | caspase activation, % (no concentration beside the values) | 0.066% of 330,000 active;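 active means over half of replicate activation scores above 10%, or exactly half above 10 with the replicate mean above 10; inconclusive means replicate mean below 10 yet half the replicates above 10; inactive means over half of replicates below 10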;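 further: wells of about 30 µL received 50 nL stock; many hits fall short of the cut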
Beta cell apopt = beta cell apoptosis inhibition; AID 435005; protection from apoptosis, % (concentration not given with the values); 0.8% of 300,000 active; INS-1E cytokine-induced death, ATP luminescence, 48 h; percent of positive-control rescue, neutral wells zero;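 active means all replicates at 75% or more, or half of them and the mean; inconclusive means half reach 75% but not the mean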;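 further: 0% = cytokine-treated negative control wells and 100% = positive control rescue; higher means more ATP so stronger rescue from cytokine killing; wells of about 40 µL received 100 nL stock; the first replicate is given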
Calb FLC = C. albicans growth modulation with fluconazole; C. albicans CaCi-2 (fluconazole-resistant clinical isolate) + fluconazole, Alamar Blue growth, 48 h; growth inhibition, % (test concentration not listed); 0.57% of 300,000 active; AID 1979;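 active means most replicates above 75%; inconclusive means exactly half above 75%; inactive means most below 75%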;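 further: all wells also contain fluconazole at 8 µg/ml as a sub-toxic cotreatment; 0% = median of DMSO wells and 100% = median of geldanamycin control wells; wells of about 8 µL received 7.5 nL stock; the first replicate is given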
Beta2AR agonist = agonists of human beta-2 adrenergic receptor inducing internalization; P07550; Am2.2-beta2AR cells, FAP receptor internalization, flow cytometry; reference of the scale not given here; response, % (test concentration not listed); 0.43% of 340,000 active; AID 504454;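 active means response above a set limit, near 3 SD of response in nonfluorescent compounds, cut at about 42% in these data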;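 further: stock transfer was 100 nL into about 11 µL; a reference agonist was the positive control; negative values mostly stem from fluorescent compounds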
Target sequence (P07550 whole entry, looked up): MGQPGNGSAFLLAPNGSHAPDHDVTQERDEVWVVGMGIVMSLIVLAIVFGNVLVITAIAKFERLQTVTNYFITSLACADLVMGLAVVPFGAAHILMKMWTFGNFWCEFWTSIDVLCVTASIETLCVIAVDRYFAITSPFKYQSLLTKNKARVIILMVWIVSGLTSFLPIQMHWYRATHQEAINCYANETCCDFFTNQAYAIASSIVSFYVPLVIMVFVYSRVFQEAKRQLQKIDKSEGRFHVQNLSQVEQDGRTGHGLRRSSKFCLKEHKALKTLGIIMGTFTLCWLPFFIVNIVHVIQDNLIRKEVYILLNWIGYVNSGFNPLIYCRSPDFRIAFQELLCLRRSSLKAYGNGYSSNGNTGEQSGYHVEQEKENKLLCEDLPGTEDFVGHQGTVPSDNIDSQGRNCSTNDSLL
Ecoli rRNA inh OD600 = recorded beside Ecoli rRNA inh, whose call it bears; OD600 change, %; measured here: OD600 growth;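 optical density of the mix in the first replicate; 0 = DMSO median and -100 = no signal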
Ecoli rRNA inh RFP = further read-out of Ecoli rRNA inh, marked with its call; RFP signal change, %; measured here: RFP humanized mutant strains;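 first replicate; 0 = DMSO median and -100 = no signal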
* marks the source's active call; other numbers are inactive results; u = inconclusive; x = no result given; & = joins results of further samples. This is a subset (hit frequency here may not be typical).

SMILES	Ecoli rRNA inh	Ecoli rRNA inh OD600	Ecoli rRNA inh RFP	LANA-H2A inh	T cruzi inh	ALR H2O2 inh	A1 inh	Beta cell apopt	Calb FLC	Beta2AR agonist
Cc1cccc(N(CC(=O)NC(C)(C)C)C(=O)CS(=O)CC(=O)Nc2ccc(F)cc2)c1 (stereo unspecified)	-6	-11	-1.7	-1.9	-7	-16	1.2	0	-5	0
O=c1nc(-c2ccccc2)cc(C(F)(F)F)[nH]1	x	x	x	3.1	-22	-8	-0.3	3	12	19
CN1CCN(C(=O)/C=C/c2ccc([N+](=O)[O-])o2)CC1	-9	-1	0.1	x	48	x	x	x	-2	11
O=C(O)c1ccc(S(=O)(=O)NCc2cccnc2)cc1	10	22	7.5	-12	-1	-14	0.3	-3	-3	-5
COc1ccc(CC(=O)NCC2CCCN(Cc3ccc(SC)cc3)C2)cc1 (stereo unspecified)	15	8	2.4	-6.3	68*	x	-1.0	-3	0	-2
COc1ccc(OCC(=O)Nc2ccc3c(c2)OCO3)cc1	7	13	-1.7	0.5	0	-30	0.0	x	7	5
O=C1c2ccccc2NC(c2ccc(O)c(O)c2)N1c1ccccc1Cl (stereo unspecified)	6	2	2.4	1.9	-19	100*	0.5	-1	9	11
O=C(CN1C(=O)NC2(CCc3ccccc32)C1=O)NCc1ccccc1Cl (stereo unspecified)	1	-3	-2.8	-2.7	x	0	0.3	0	x	-4
Cc1nn(C)cc1C(=O)Nc1c(C)nn(Cc2ccccc2Cl)c1C	x	x	x	-0.1	-12	-1	0.2	-12	1	-3
O=C(COc1ccc(Cl)cc1)NCCc1ccccn1	3	-3	3.8	-1.9	13	-2	0.7	-1	-17	-8
CCc1ccc(C(=O)C(C)OC(=O)c2nn(C)c(=O)c3ccccc23)cc1 (stereo unspecified)	4	10	2.0	-2.0	17	1	-0.2	-5	0	3
O=C(N(c1ccccn1)c1ccccn1)C12CC3CC(CC(Cl)(C3)C1)C2	1	3	-1.7	1.4	-4	-5	0.6	-1	10	-1
Cc1cccc(C(=O)OCC(=O)Nc2nccs2)c1	x	x	x	9.0	16	0	-0.3	3	-18	-4
c1ccc(Cn2ncc3c(N4CCN(C(c5ccccc5)c5ccccc5)CC4)ncnc32)cc1	5	14	0.2	-1.0	50	x	0.5	6	-6	4
CC(=O)Nc1ccc(S(=O)(=O)Nc2ccc3nc(C)sc3c2)cc1	-2	-10	-1.7	7.7	x	-10	-0.1	30	x	-4
COCCCNC(=O)CCc1ccccc1	11	14	2.9	0.3	-5	-7	0.0	1	-12	1
COc1cccc(C(NC(=O)c2ccccc2F)NC(=O)c2ccccc2F)c1	x	x	x	3.9	-3	1	-0.2	-1	-9	7
COc1ccc(CN2CCC(C(=O)N3CCN(c4ccccc4F)CC3)CC2)cc1OC	x	x	x	-1.0	40	2	1.9	0	-9	-6
CC(C)(C)C1CCC2(CC1)C(Nc1cccc(C(F)(F)F)c1)=NC(=S)N2CC#N (stereo unspecified)	x	x	x	-2.7	8	x	-0.4	25	-12	4
CCn1ccnc1CNC(=O)CC1C(=O)NCCN1CC(c1ccccc1)c1ccccc1 (stereo unspecified)	15	19	2.1	-8.1	-10	-2	-0.6	3	-14	1
Cc1ccc(S(=O)(=O)c2c(C(=O)c3ccccc3)cnc3cc4c(cc23)OCCO4)cc1	x	x	x	8.0	44	-12	0.5	-6	-6	-2
O=C(CN1CCN(C(=O)C2CCCO2)CC1)Nc1ccc(Cl)c(Cl)c1 (stereo unspecified)	3	3	-1.4	-0.4	-5	-3	0.5	-5	x	8
COc1cc(/C=N/Nc2ncnc3sc4c(c23)CCC4)ccc1O	-20*	-2.0*	4.1*	x	-5	x	x	x	-7	-5
COc1ccc(N(C(=O)c2cc3ccccc3oc2=O)C2C=CS(=O)(=O)C2)c(OC)c1 (stereo unspecified)	7	7	0.2	-3.3	-4	-3	-0.7	-6	10	-2
COc1cccc(NC(=S)NCc2ccncc2)c1	13	-1	-1.8	-6.8	-16	4	1.2	1	-11	1
Cc1ccc(/C(N)=N/OC(=O)CCC2CCCCC2)cc1	x	x	x	8.7	-1	-8	0.4	-7	-4	3
O=C(CNc1cccc2ccccc12)N/N=C/c1ccc([N+](=O)[O-])cc1	3	3	0.4	-1.9	22	-26	-0.2	-3	x	0
Cc1ncsc1CCOC(=O)c1ccc([N+](=O)[O-])cc1	x	x	x	12	8	-12	-0.5	-3	2	-61
NC(=O)c1cc(S(=O)(=O)NC2CCCCC2)co1	x	x	x	-1.7	-5	5	-0.3	-11	-9	-11
COCC1CCN(C(=O)c2ccc(OC3CCN(Cc4ccccn4)CC3)cc2)C1 (stereo unspecified)	x	x	x	-1.6	-13	0	0.7	-2	-12	-3
CC(C)CN(C(=O)c1cccc(S(=O)(=O)N2CCCCC2)c1)C1CCS(=O)(=O)C1 (stereo unspecified)	7	12	-0.4	-0.4	-1	0	0.6	-2	26	0
O=C(OCC#CCSc1nnc(-c2cccc3ccccc23)o1)c1cccs1	x	x	x	2.5	42	x	0.7	3	-1	6
CC(C)NC(=O)c1ccc(CN2CCC(Cc3ccccc3)CC2)cc1	12	5	-0.7	3.1	7	-6	-0.4	6	16	8
Cc1nnc2c(N3CCN(CCO)CC3)nc3ccccc3n12	9	12	1.0	5.1	1	-11	-0.7	x	-3	-11
Cc1ccc(-c2ccc(/C=N\NC(=O)c3cc4c(ccc5ccccc54)o3)o2)cc1[N+](=O)[O-]	x	x	x	0.1	8	-6	0.6	23	3	0
COc1ccc(N(C)C(=O)c2cc3c(Cl)nc4ccccc4c3s2)cc1	x	x	x	-1.4	39	1	0.1	8	-5	-4
CCCN1CCC(=NNC(=O)CSc2cc(C)c(Br)cc2C)CC1	x	x	x	0.6	3	56	0.1	2	1	3
Cc1cc(C)c(NC(=O)CCc2c(C)noc2C)c(C)c1	12	11	0.4	-0.8	x	-1	0.6	3	x	2
Cc1c(O)cc2n(c1=O)-c1ccccc1C2(C)C	x	x	x	2.9	0	6	-0.1	8	2	6
O=C(CC1SCCNC1=O)Nc1cccc(Cl)c1 (stereo unspecified)	x	x	x	1.8	-1	-5	-0.2	-2	5	6
COc1cc(C(c2oc(CO)cc(=O)c2O)c2oc(CO)cc(=O)c2O)cc(OC)c1OC	0	-1	6.5	0.4	-7	0	0.6	3	-13	-2
Cc1sc2ncn(CC(=O)N(C)C3CCCCC3)c(=O)c2c1C	0	11	-0.3	x	-5	x	1.0	3	-3	0
C/C(=N\NC(=S)NCc1ccccc1)c1ccco1	-16	-11	0.5	0.8	-28	7	-0.6	-4	-24	-6
O=C(c1cccs1)N1CCN(Cc2ccccc2)CC1	6	16	-6.0	x	-4	x	0.3	1	-1	-17
Cc1nc2ccccc2c(=O)n1NC(=O)c1ccccc1Cl	x	x	x	-1.5	-13	-3	1.0	-4	-1	-10
CC(CC(F)(F)F)N1CCC(n2nccc2NC(=O)CCOc2ccccc2)CC1 (stereo unspecified)	2	3	0.8	2.3	18	-2	0.8	-1	41	4
COc1ccc(OCCCC(=O)OCC(=O)Nc2ccc(Cl)cn2)cc1	9	7	4.2	2.6	-2	-1	0.6	-1	-1	11
CSc1ccc(C(=O)C2CCCN(C(=O)Cn3cnnn3)C2)cc1 (stereo unspecified)	13	10	3.3	1.3	0	-4	-1.6	-6	1	-7
COc1ccc(N(C(=O)c2snc(C(N)=O)c2N)C(C(=O)NCc2ccc(F)cc2)c2ccc(C)o2)c(OC)c1 (stereo unspecified)	5	7	2.0	4.9	15	-3	-0.6	-5	-7	-2
COC(=O)c1cc(OC)c(OC)cc1NC(=O)Cn1nnc(-c2ccccc2Cl)n1	x	x	x	-3.0	17	0	-0.2	-9	8	-2
Cc1cc(C)nc(NC2=NCC(=O)N2c2cccc(Cl)c2)n1	x	x	x	5.0	-12	x	0.2	3	6	-13
Cc1c(NC(=O)C(C)Sc2n[nH]c(N)n2)c(=O)n(-c2ccccc2)n1C (stereo unspecified)	x	x	x	-3.0	1	x	0.0	-2	-4	-1
Cc1noc(C)c1S(=O)(=O)Nc1ccc2c(c1)CC(=O)N([C@H](C)CO)C[C@H](C)[C@@H](CN(C)CC1CC1)O2	5&12	7&7	3.4&8.3	-5.6	x	2	0.8	-3	x	-2
COc1cc(OC)c(OC)cc1/C=N/NC(=O)c1ccc(CSc2nc(C)cc(C)n2)cc1	10	6	-3.0	-2.1	-11	-2	0.6	-11	u	10
COc1ccc(OC)c(CCNC(=O)c2ccc(CS(=O)Cc3ccc(Cl)cc3)o2)c1 (stereo unspecified)	-28*	-20*	-4.9*	-3.3	1	-2	1.1	1	-11	-10
Cc1nn(C)c(Cl)c1CN1CCC(Oc2ccc(C(=O)N3CCCC3)cc2)CC1	5	18	-1.0	-7.5	-2	-11	1.7	x	-26	-6
Cc1ccc(CCNC(=O)C2CCCN(S(=O)(=O)c3c(C)nn(C)c3C)C2)cc1 (stereo unspecified)	-3	-2	-0.4	6.2	9	-3	0.6	-2	-7	-10
CN=C1C([N+](=O)[O-])=CC=C2C1=NC1(CCCCC1)N2O	x	x	x	2.4	-2	-24	0.8	x	-5	-32
O=c1oc(CCO)cc2ccc(C#Cc3ccsc3)cc12	-29	-55	-30	0.1	x	0	-2.6	3	x	3
Cc1ccccc1CNC(=O)/C=C\C(=O)O	x	x	x	0.8	-14	-22	-0.6	5	4	10
The list goes on.
SMILES	Ecoli rRNA inh	Ecoli rRNA inh OD600	Ecoli rRNA inh RFP	LANA-H2A inh	T cruzi inh	ALR H2O2 inh	A1 inh	Beta cell apopt	Calb FLC	Beta2AR agonist
Cc1ccnc(NC2OC(=O)c3ccccc32)c1 (stereo unspecified)	x	x	x	5.1	-1	-2	0.5	-31	7	-4
CC(C)=CCN1CCN(Cc2nc(-c3ccc(F)cc3)cs2)CC1CCO (stereo unspecified)	0	-3	-4.0	x	19	x	x	x	-27	10
Cc1ccc2cc(C#N)c(N3CCN(C)CC3)nc2c1	x	x	x	-1.4	7	-4	0.3	6	-5	-10
O=C(NNC(=O)c1cc(Br)c(Br)s1)c1ccncc1	-1	5	4.4	0.9	x	4	0.2	-1	x	6
CCOc1cc(C2C3=C(CCCC3=O)Nc3ccc4ncccc4c32)ccc1O (stereo unspecified)	-6	-3	1.7	6.6	14	15	0.1	1	u	-18
Nc1nc(-c2cccnc2)nn1C(=O)c1ccc(F)cc1	21	21	0.8	x	-8	x	x	x	4	0
O=C(CN1C(=O)C2CC=CCC2C1=O)NCC1COc2ccccc2O1 (stereo unspecified)	x	x	x	51*	-5	-5	-0.6	-5	-10	0
COc1ccc(CCNC(=O)/C=C/c2ccc(S(=O)(=O)N3CCOCC3)cc2)cc1	14	13	-4.9	0.6	x	-3	0.3	2	x	3
CC(=O)c1c(C)nn(-c2ccccc2)c1C	4	6	-0.8	2.6	-22	2	-0.4	-5	3	3
CCn1cc(/C=N\NC(=O)c2ccc(F)cc2)cn1	x	x	x	1.8	-17	98*	-0.2	-4	-28	-4
